GLA inh pH 4.5: alpha-galactosidase A (human) inhibition, pH 4.5; 230,000 tested, under 10 active; activity change, negative = inhibition, % at 105 µM; P06280; purified enzyme, 4-MU-alpha-Gal fluorescence, pH 4.5; inconclusive = small, poorly fitted or top-dose-only inhibition, or a rising curve; inactive = flat fitted curve, though single readings scatter; no compound was filed as active;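 further: 0% = full activity with enzyme and -100% = basal without enzyme; dose as in the result columns while the protocol names 77 µM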
miR-21 FLuc: raises the signal of a miR-21 reporter; Potency, µM (titrated, usually from 38.3 µM), inactives show top-dose reporter change, positive = more light; AID 2288; 340,000 tested, under 10 active; HeLa miR-21 FLuc reporter, luciferase, 48 h; active = well fitted rising curve with a large enough effect; inconclusive = small, poorly fitted or top-dose-only effect; inactive = no such curve, though single readings can be large or run the other way;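 further: % of control where 0% means no effect; miR-21 action dims this reporter so a rising signal means less miR-21 action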
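HeLa cells stably expressing CMV-driven firefly luciferase with a downstream miR-21 binding sequence, endogenously expressing miR-21, were treated with titrations (up to about 40uM final) for 48 hours at 37 degree Celsius. Luciferase luminescence was read after lysis.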
Rango dissoc inh: inhibition of RanGTP-driven Rango-importin beta dissociation | O95149+P62826 | Biochemical FRET Rango-importin beta, RanGTP-induced dissociation | Potency, µM (highest dose often 46.1 µM), inactives show at the top dose activity change, negative = inhibition | 0.071% of 340,000 active | AID 540253; active means falling FRET ratio curve, often poorly fitted, with flat reads before Ran was added; inconclusive means other falling curves, or compound fluorescence or quenching; inactive means flat or rising ratio curve;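 further: potency means the concentration at half of the fitted maximal effect; % of control where 0% means no effect; nearly all actives have a fitted effect of over 45% in size; -100% = wells without RanGTP and RCC1; the record marks most hits as doubtful in a second field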
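Two FRET readings bracket the reaction: one 5 min after compound meets Rango–importin beta, another 45 min after RanGTP-RCC1 (0.6 uM Ran, 0.2 uM RCC1, 2 mM GTP) is added. Only the second defines inhibition.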
Rango complex inh: Rango-importin beta binding inhibition; Rango CFP/YFP FRET sensor + importin beta, 45 min; 0.031% of 340,000 active; Potency, µM (doses to about 92.2 µM), for inactives: at the highest dose inhibition of complex formation; Q14974; active = rising FRET ratio curve, often small or poorly fitted; inconclusive = mostly compound fluorescence or quenching in the first reads; inactive = flat curves in all reads;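 further: potency means the concentration at half of the fitted maximal effect; 0% = DMSO wells and 100% = buffer wells lacking importin beta; nearly all actives have a fitted effect of over 15% in size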
Target sequence (Q14974 whole entry, looked up): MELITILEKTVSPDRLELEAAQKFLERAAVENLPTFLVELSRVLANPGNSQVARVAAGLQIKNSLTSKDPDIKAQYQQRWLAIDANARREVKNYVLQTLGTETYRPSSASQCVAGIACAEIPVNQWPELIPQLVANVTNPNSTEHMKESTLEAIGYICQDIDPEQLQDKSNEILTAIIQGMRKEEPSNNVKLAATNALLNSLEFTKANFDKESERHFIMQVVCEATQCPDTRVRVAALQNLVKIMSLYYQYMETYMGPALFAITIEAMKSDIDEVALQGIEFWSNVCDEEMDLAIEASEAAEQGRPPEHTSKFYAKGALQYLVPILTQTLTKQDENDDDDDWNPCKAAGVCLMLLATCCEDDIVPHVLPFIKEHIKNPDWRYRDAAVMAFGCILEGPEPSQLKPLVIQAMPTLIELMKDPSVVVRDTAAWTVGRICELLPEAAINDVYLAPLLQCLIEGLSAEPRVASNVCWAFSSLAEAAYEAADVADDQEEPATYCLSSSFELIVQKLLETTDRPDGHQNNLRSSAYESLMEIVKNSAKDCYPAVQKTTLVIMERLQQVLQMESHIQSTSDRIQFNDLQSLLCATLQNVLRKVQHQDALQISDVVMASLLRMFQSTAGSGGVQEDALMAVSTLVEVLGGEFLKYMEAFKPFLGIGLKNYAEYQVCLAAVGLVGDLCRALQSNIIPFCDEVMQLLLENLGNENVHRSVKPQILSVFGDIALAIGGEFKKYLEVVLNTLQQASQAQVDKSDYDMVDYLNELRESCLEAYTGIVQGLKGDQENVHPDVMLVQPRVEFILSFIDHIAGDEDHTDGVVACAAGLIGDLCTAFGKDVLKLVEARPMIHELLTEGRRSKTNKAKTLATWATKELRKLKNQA
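Inhibition scored from the CFP 486 nm/YFP 530 nm FRET ratio 45 min after adding 0.125 microM importin beta to 50 nM Rango biosensor preincubated 5 min with compound (room temperature, PBS with DTT, Tween-20, BSA). No-importin wells as positive control.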
Starred values were filed as active, the others as inactive; ? = inconclusive; nt = no result given; & = joins results of further samples. This is a subset, so the mix of outcomes need not match the whole.

| GLA inh pH 4.5 | miR-21 FLuc | Rango dissoc inh | Rango complex inh | Structure |
| --- | --- | --- | --- | --- |
| 1 | 1% | 2% | -0.3% | CCC(=O)Nc1cc(NC(=O)CSc2nnc(C(C)C)n2CC)ccc1C |
| nt | 9%&21% | 5% | 0.3% | Cc1ccc(N(C)S(=O)(=O)c2ccc(-c3cnc(C4CC4)o3)cc2)cc1 |
| -1 | 7% | 19% | -0.1% | Cc1cc(Cl)ccc1NC(=O)Cn1cncn1 |
| -8 | -5% | 1% | 0.6% | CCc1ccc(C(=O)Cn2ncc(Cl)c(Cl)c2=O)cc1 |
| nt | ? | -4% | -0.6% | O=c1cnn([C@@H]2O[C@H](CO)[C@@H](O)[C@H]2O)c(=O)[nH]1 |
| 4 | -10% | 0% | -0.9% | CN(NC(=S)Nc1ccc(OC(F)F)cc1)C(=S)Nc1ccc(OC(F)F)cc1 |
| 3 | 4% | -5% | -1.6% | O=C(NCCCn1ccnc1)C(=O)NCC1OCCCN1S(=O)(=O)c1ccc(Cl)cc1 (centres undefined) |
| ? | -5% | 13% | 6.0% | Cc1ccc(SCC(=O)N(Cc2nc(-c3ccccc3)no2)C(C)C)cc1 |
| 5 | 1% | -10% | -1.5% | c1ccc(CN2CCC(N3CCN(Cc4ccc5c(c4)OCO5)CC3)CC2)cc1 |
| -4 | 2% | -3% | 0.1% | Cc1ccc(S(=O)(=O)N(C)CC(=O)OCC(=O)NC(=O)NC(C)C)cc1 |
| nt | nt | 3% | -0.7% | CC(C)CN(C(=O)COc1ccc(Br)cc1C=O)C1CCS(=O)(=O)C1 (centres undefined) |
| -3 | -7% | 0% | 0.4% | Cn1c(=O)c(=O)n(C)c2cc(S(=O)(=O)N3CCCCC3)ccc21 |
| nt | -6% | 9% | 3.8% | O=C(COc1ccc(NC(=O)c2cccs2)cc1)c1ccc(F)cc1 |
| 3 | -2% | 2% | -1.0% | COc1cc(-c2csc(N3CCOCC3)n2)cc(OC)c1OC |
| 2 | -11% | 3% | 0.7% | CCOc1nc(-c2ccncc2)nc2ccccc12 |
| nt | -3% | 19% | 0.8% | COCCNC(=O)CSc1ccccc1C(=O)NC1CCCc2ccccc21 (centres undefined) |
| 9 | 2% | -13% | -3.8% | O=C(NCc1cccs1)C1CC(=O)N(c2ccc(Cl)cc2)C1 (centres undefined) |
| nt | -4% | 0% | -1.2% | CCOc1ncccc1C(=O)NCCCSc1ccccc1 |
| nt | nt | -2% | 0.5% | O=C(CNC(=O)c1ccccc1)Sc1ccccc1 |
| -2 | -2% | 8% | 2.5% | COc1ccc(S(=O)(=O)N2CCN(Cc3ccc(Cl)cc3)CC2)cc1 |
| nt | nt | -3% | -0.8% | CC1CCc2sc3c(c2C1)c1ncnn1c(=O)n3CC(=O)c1ccc(Br)cc1 (centres undefined) |
| -6 | 4% | 0% | -2.3% | COc1cccc(N2CCN(c3ccc(N4C(=O)CCC4=O)cc3[N+](=O)[O-])CC2)c1 |
| -6 | 0% | 2% | -1.2% | O=C(Nc1ccc(F)cc1F)c1sccc1SCc1cccc(C(F)(F)F)c1 |
| nt | nt | 1% | ? | CN(Cc1ccccc1)C(=O)c1ccc(NC(=O)Cc2ccc(NC(=O)C3CCN(C(=O)C4CCC4)CC3)cc2)cc1 |
| -1 | -43% | -20% | 4.5% | C=CCn1c(SCc2ccc(F)cc2)nc2c1c(=O)[nH]c(=O)n2C |
| 11 | -3% | -21% | 2.2% | OCCNCCNCc1ccccc1OCc1ccccc1 |
| 1 | -2% | 31% | -0.7% | CN(Cc1ccccc1)C(=O)c1nc2ccccn2c1CNCCOc1cccnc1 |
| nt | -4% | 3% | -2.7% | Cc1cc(C(=O)Nc2ccc(F)c(Cl)c2)on1 |
| 0 | -1% | 18% | 0.4% | CC(NC(=O)NC1CCCCC1)C(c1cccs1)N1CCOCC1 (centres undefined) |
| 0 | 0% | -5% | 0.0% | NC1=NC2(CCCC2)N=C(Nc2ccccc2)N1 |
| 5 | 1% | 3% | -5.7% | O=c1cc(N2CCN(c3ccc(F)cc3)CC2)[nH]c(=O)n1Cc1ccc(F)cc1 |
| -24 | -8% | 4% | -6.8% | CC(=O)c1ccc(NC(=O)C2(S(=O)(=O)c3ccccc3)CC2)cc1 |
| 5 | -5% | -13% | 5.9% | CCOC(=O)CCc1c(C)n(CC)c2ncnn2c1=O |
| -4 | -9% | -7% | 0.1% | C=CCN1C(=O)NC2(O)C(=O)c3ccccc3C12O (centres undefined) |
| nt | -4% | 7% | -0.6% | COc1ccc(CCNC(=O)CCC(=O)Nc2ccccc2[N+](=O)[O-])cc1OC |
| 4 | 9% | 2% | ? | Cc1cc(NC(=S)NC(=O)c2ccco2)c2ccccc2n1 |
| -4 | -6% | -5% | 0.1% | O=C(Nc1ccccc1)Nc1nnc(CSCc2ccccc2Cl)s1 |
| 4 | -7% | -3% | -2.8% | CCOc1ccc(NC(=O)CSCC(=O)O)cc1 |
| 1 | 2% | 20% | 0.1% | Cc1ccc(C)c(CSc2nnc(-c3cccs3)n2Cc2ccco2)c1 |
| -14 | -9% | 35% | -1.0% | CN1C(=O)c2ccccc2Sc2ccc(NC(=O)N3CCCC3)cc21 |
| -9 | -37% | 14% | -3.5% | COc1cc(C(=O)Nc2ccc(O)cc2)ccc1OC(C)=O |
| nt | nt | 1% | -0.2% | O=C(CN1C(=O)NC2(CCc3ccccc32)C1=O)Nc1ccccc1OC(F)F (centres undefined) |
| -10 | -65% | 1% | -0.6% | O=C(Nc1ccccc1Cl)c1ccc(-c2ccccn2)s1 |
| nt | nt | -5% | 3.5% | C[C@H](CO)N1C[C@H](C)[C@@H](CN(C)S(=O)(=O)c2ccccc2)Oc2ccc(NS(=O)(=O)c3cccs3)cc2C1=O |
| -7 | -1% | -12% | -0.3% | COc1cc([N+](=O)[O-])ccc1NC(=O)C[n+]1cccc(C)c1 |
| nt | nt | -5% | -2.9% | COc1ccc2nc(NC(=O)CSC(C)C(=O)Nc3cc(C)on3)sc2c1 (centres undefined) |
| nt | -3% | -6% | -0.6% | CNC(=O)CN(Cc1ccccc1)S(=O)(=O)c1ccc(Cl)cc1 |
| 1 | -48% | -7% | -0.1% | CCOC(=O)C1CCN(c2c(Nc3ccc4c(c3)OCCO4)c(=O)c2=O)CC1 |
| 0 | ? | -7% | -0.2% | Cc1cccc(/C=C(\c2nc3ccccc3[nH]2)S(=O)(=O)c2ccccc2)c1 |
| nt | 0% | 1% | 2.8% | CCOc1ccc(N=C2SCC(=O)N2CC)cc1 |
| nt | -1% | -9% | 0.5% | O=C(Nc1cccnc1)C1CCCN(c2ncnc3c2nc2n3CCCCC2)C1 (centres undefined) |
| -1 | -2% | -9% | -1.7% | O=C(NS(=O)(=O)c1ccc2c(c1)OCCO2)c1ccccc1 |
| -2 | -1% | -14% | -4.4% | Cc1cccc(NC(=O)CN2CCC(NC(=O)C3CCCCC3)CC2)c1C |
| -2 | -2% | 2% | -0.3% | OCCC1CN(Cc2cnc(-c3ccccc3)s2)CCN1CCc1ccccc1 (centres undefined) |
| -4 | -5% | -9% | -0.2% | O=C(CCSCCC(=O)NCC1CCCO1)NCC1CCCO1 (centres undefined) |
| -5 | -18% | 8% | -2.9% | O=C(NCc1ccc(-c2csnn2)cc1)c1cccs1 |
| nt | 2% | -2% | 5.2% | COc1ccc(N2CCN(C3CCCN(Cc4ccccc4OCCO)C3)CC2)cc1 (centres undefined) |
| -3 | -46% | -1% | -0.4% | COc1ccc(/C(N)=N/OC(=O)Cc2ccc(C)cc2)cc1 |
| -1 | -18% | -12% | 0.5% | Cc1cc(C)nc(SCC(=O)Nc2ccc(S(=O)(=O)Nc3ncccn3)cc2)n1 |
| -6 | -4% | -23% | -4.2% | CCOc1ncnc2c1[nH]c1ccccc12 |

Grouped by structure, those above containing a nitro group on carbon (3)
| GLA inh pH 4.5 | miR-21 FLuc | Rango dissoc inh | Rango complex inh | Structure |
| --- | --- | --- | --- | --- |
| -6 | 4% | 0% | -2.3% | COc1cccc(N2CCN(c3ccc(N4C(=O)CCC4=O)cc3[N+](=O)[O-])CC2)c1 |
| nt | -4% | 7% | -0.6% | COc1ccc(CCNC(=O)CCC(=O)Nc2ccccc2[N+](=O)[O-])cc1OC |
| -7 | -1% | -12% | -0.3% | COc1cc([N+](=O)[O-])ccc1NC(=O)C[n+]1cccc(C)c1 |

Other entries follow.
| GLA inh pH 4.5 | miR-21 FLuc | Rango dissoc inh | Rango complex inh | Structure |
| --- | --- | --- | --- | --- |
| nt | nt | 19% | 4.0% | CCN(CC)C(=O)[C@H]1CC(CC(=O)NC/C=C(\C)CCC=C(C)C)C(=O)N2CCc3c([nH]c4ccc(OC)cc34)[C@]12C (some centres undefined) |
| 9 | 1% | 7% | ? | CN=C1SC(CC(=O)Nc2ccc(C(=O)O)cc2)C(=O)N1C (centres undefined) |
| -7 | 3% | -29% | ? | CCOC(=O)C1C2C=CC3(CN(c4cccc(Cl)c4)C(=O)C13)O2 (centres undefined) |
| 6 | 16% | 3% | 9.0% | Cc1cc(=O)oc2ccc(OCC(=O)N(Cc3ccc(F)cc3)Cc3ccco3)cc12 |
| -2 | -9% | 16% | ? | O=C(CSc1nc(Nc2ccccc2)nc(N2CCOCC2)n1)Nc1ccccc1Cl |
| -10 | -33% | -12% | -2.3% | COc1cc(/C=N/NC(=O)COc2ccccc2[N+](=O)[O-])ccc1OC(=O)c1ccco1 |
| nt | 0% | -4% | 0.1% | O=S(=O)(c1ccc(-c2nnco2)cc1)N1CCCCC1 |
| 14 | -24% | 27% | 13% | Cc1ccc(NC(=O)c2ccc(S(=O)(=O)C(F)F)cc2)c(C)c1 |
| nt | nt | 8% | -1.4% | C=C1[C@@H](O)[C@H](CC(C)C)N(Cc2ccccc2Br)S1(=O)=O |
| -1 | -2% | -10% | -6.1% | Cc1cccc(NC(=O)c2ccccc2NC(=O)C2CCCCC2)c1C |
| 5 | -45% | 0% | 0.3% | CC(/C=N/NC(=O)c1cccnc1)=C\c1ccccc1 |
| 10 | -2% | 25% | 0.3% | COc1ccc(C=O)cc1OS(=O)(=O)c1ccccc1[N+](=O)[O-] |
| -8 | -6% | 1% | 1.1% | COc1ccc(N(C(=O)c2ccco2)C(C(=O)NC2CCCC2)c2cccs2)cc1OC (centres undefined) |
| nt | 3% | 13% | -0.1% | COc1nc2ccccc2nc1N1CCN(c2ccc(F)cc2)CC1 |
| nt | 6% | -8% | 3.7% | COc1cccc(Oc2ccc(C(F)(F)F)cc2NC(=O)CCc2nc3ccccc3c(=O)[nH]2)c1 |
| nt | -5% | -13% | ? | Cc1ccc(-c2csc(N3CCN(CCCn4c(C(F)(F)F)nc5ccccc54)CC3)n2)cc1 |
| nt | 0% | 11% | 0.8% | COc1cc2cc(C#N)c(SCC(=O)Nc3cc(C)on3)nc2cc1OC |
| nt | 0% | -12% | 0.1% | COCCNC(=O)C(c1ccc(C)cc1)N(Cc1cccs1)C(=O)CCC(=O)Nc1ccccn1 (centres undefined) |
| -2 | 9% | 1% | 0.0% | CCn1c(Cc2ccc(OC)cc2)nnc1SCC(=O)Nc1cccc(C(=O)OC)c1 |
| -2 | -25% | 6% | -3.6% | O=[N+]([O-])c1ccc(COc2ccc(CNc3ccccc3)cc2)cc1 |
| 8 | 1% | 1% | 0.2% | O=C(COc1ncnc2c(Cl)cc(Cl)cc12)N1CCN(S(=O)(=O)c2ccccc2)CC1 |
| nt | 5% | -8% | -0.3% | COc1cc(C(=O)N/C(=C\c2cn(C)c3ccccc23)C(=O)N2CCN(C)CC2)cc(OC)c1OC |
| 2 | 1% | nt | nt | CCCCc1c(C)c(C#N)c2nc3ccccc3n2c1Cl |
| nt | -4% | 1% | -3.7% | CN(Cc1ccccc1)C(=O)CCS(=O)(=O)c1cc2c(cc1Cl)NC(=O)CO2 |
| nt | nt | -1% | -4.5% | O=C(Cc1ccccc1)OCC(=O)c1cccc([N+](=O)[O-])c1 |
| -2 | -8% | 12% | -2.8% | O=C(COc1cccc(Cl)c1)Nc1ccc(N2CCOCC2)cc1 |
| nt | nt | -5% | 7.5% | CCC1(C2=CCCCC2)C(=O)NC(=O)N=C1N (centres undefined) |
| nt | 3% | 10% | 6.0% | C=CCN1C(=O)c2ccccc2NC1c1cc(Br)cs1 (centres undefined) |
| nt | -2% | -7% | -0.3% | Cc1cccn2c(=O)c3cc(C(=O)NCCC4=CCCCC4)n(C)c3nc12 |
